PK Bst: alters activity of Bacillus stearothermophilus pyruvate kinase; partly purified Bacillus stearothermophilus pyruvate kinase, luminescence ATP production; ribose 5-phosphate activator present at AC10; Potency, µM; 1.2% of 51,000 active; in the data active means potency below about 11 µM; inconclusive means mostly about 12 µM to 25 µM; inactive means weaker than that;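 the screen sought inhibitors and activators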;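 also: potency is read from the fitted curve at half-maximal effect; scaled between full activation by ribose 5 phosphate and full inhibition by luteolin; about four in five hits inhibit and the cells do not say which; series up to 57 µM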
TsaE inh: displaces an ADP probe from E. coli YjeE (TsaE) | purified YjeE, fluorescence polarisation of a bound ADP probe | Potency, µM | 0.05% of 71,000 active; active = well fitted falling curve; inconclusive = weaker or top-dose-only fall, or a rising curve; inactive = flat or poorly fitted curve;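 also: top concentration of the series not given in the record; excess ADP was the control for the full effect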
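Fluorescence polarization of a BODIPY Texas Red–ADP probe (2 uM) bound to purified YjeE (10 uM) was read after 15 min room-temperature incubation with compounds. Loss of polarization marks inhibitors; ADP serves as titrated control.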
Numbers without * were called inactive; i = inactive; ? = inconclusive; · = no result given. Not all compounds are listed; rates above refer to the full screens.

Second line of a record – PK Bst	TsaE inh
c1ccc(Cn2nnnc2C(c2cccs2)N2CCOCC2)cc1 (configuration not stated)
 : >57	i
Cc1ccc2nc(-c3ccc(NC(=O)c4ccc(N)cc4)c(S(=O)(=O)O)c3)sc2c1
 : ·	i
CCCn1c(C)nc2c(NCCCN3CCCCC3C)nc(C)nc21 (configuration not stated)
 : ·	i
N#CCCn1c(SCC(=O)NCCc2ccc(F)cc2)nc2ccccc21
 : >57	i
CCOC(=O)C(C)Sc1nc2c(c(=O)[nH]c(=O)n2C)n1Cc1ccc(Cl)cc1 (configuration not stated)
 : ·	i
COc1ccccc1NC(=O)CSc1nnc(-c2ccncc2)n1CC1CCCO1 (configuration not stated)
 : >57	i
CCC(=O)Nc1ccc2c(c1)nc1n2CCSC1
 : >57	i
O=C(c1cccs1)c1cn(CC(=O)N2CCc3ccccc3C2)c2ccccc12
 : >57	i
Cc1ccc2nc3c(cc(C(=O)NCCCn4ccnc4)n3C)c(=O)n2c1
 : >57	i
O=C1C2C3C=CC(C3)C2C(=O)N1CCCCN1C(=O)C2C3C=CC(C3)C2C1=O (configuration not stated)
 : >57	i
CCC/C=C(\CCC)C(NS(C)(=O)=O)c1ccccc1 (configuration not stated)
 : ·	i
CCOC(=O)NC(O)C(=O)c1cccs1 (configuration not stated)
 : >26	·
N#CCCn1c(=O)c(-c2ccc(F)cc2)nc2cnc(Oc3cccc(Cl)c3)nc21
 : ·	i
CCCCn1nc(C(=O)N2CCc3ccccc32)c2ccccc2c1=O
 : >57	i
N#Cc1c(N)nc(N2CCCC2)c(C#N)c1-c1ccc(Cl)cc1
 : >57	i
CCOc1ccccc1C(=O)NCc1ccco1
 : >57	i
CC(C)(C)NCC[C@@H](O)c1cc(C(F)(F)F)nc2c(C(F)(F)F)cccc12
 : ·	i
Cc1ccc(NC(=O)CCn2c(=O)oc3ccccc32)c(C)c1
 : >57	i
N[C@H](C(=O)N[C@@H]1C(=O)N2C(C(=O)O)=C(Cl)CS[C@@H]12)c1ccccc1
 : ·	i
O=C(NCc1nc2ncc(Br)cc2[nH]1)c1ccccc1
 : >57	i
Cc1nnc(SCC(=O)N2CCOCC2)s1
 : >57	i
CCC(C)c1ccc2oc(-c3ccc(NC(=O)Cn4cnc5c(=O)n(C)c(=O)n(C)c54)cc3)nc2c1 (configuration not stated)
 : >57	i
Cn1c(=O)n(C)c2cc(S(=O)(=O)NCc3ccccc3)ccc21
 : >57	i
N#Cc1c2ncn(CC(=O)c3ccc(Br)cc3)c(=O)c2c2n1CCC2
 : >57	i
COc1cc(C(N)=O)ccc1OCc1ccccc1
 : >11	i
O=C(Nc1nsc(-c2ccccc2)n1)c1ccncc1
 : ·	i
COc1ccc(S(=O)(=O)NCCC(=O)NC2CCCCCCC2)cc1
 : >57	i
O=C(CSc1nnc2sc3ccccc3n12)c1ccco1
 : i	i
CC(=O)Nc1ccc(S(=O)(=O)NC(CC(=O)O)c2ccc(OC(C)C)cc2)cc1 (configuration not stated)
 : >57	i
Cn1nc(OCC(N)=O)ccc1=O
 : >57	i

Next records:
Second line of a record – PK Bst	TsaE inh
Cc1cccc(NC(=O)C2CCCN(c3nc(C)cc(C)n3)C2)c1 (configuration not stated)
 : >57	i
CCOc1ccccc1N1CCN(c2nc3ccccc3nc2C(C#N)C(=O)OC)CC1 (configuration not stated)
 : >26	·
O=C(CCc1nc2ccccc2[nH]1)NCc1ccc2c(c1)OCO2
 : ·	i
CC(=O)O[C@]1(C(C)=O)CC[C@H]2[C@@H]3C=C(C)C4=CC(=O)CC[C@]4(C)[C@H]3CC[C@@]21C
 : >26	·
CCOC(=O)c1cn(CC)c2cc(N3CCOCC3)c(F)cc2c1=O
 : ·	i
CCOC(=O)C1=C(CSc2nc(C)cc(C)c2C#N)OC(N)=C(C#N)C1c1cccs1 (configuration not stated)
 : >26	·
CCC(C)COC(=O)c1ccc(C(=O)O)cc1 (configuration not stated)
 : >57	i
NC(=O)c1ccccc1OCCOCCOCCOc1ccccc1C(N)=O
 : >26	·
CC(C)c1nc2sc3c(c2c(=O)o1)CCCC3
 : >26	·
O=C(Cn1nc(Cc2cccnc2)c2ccccc2c1=O)NCc1ccc2c(c1)OCO2
 : ·	i
COc1ccc(C2(CNC(C)=O)CCCC2)cc1OC
 : ·	i
COc1ccc(O)c(C(=O)c2cc(C#N)c(=O)n(CCN3CCOCC3)c2)c1
 : >57	i
CC1(C)CC(=O)C=C(Nc2ccc(Br)cn2)C1
 : >57	i
Cc1cc(N2CCOCC2)n2nc(-c3cccc(F)c3)cc2n1
 : >57	i
COc1ccc(-c2nc(N3CCOCC3)nc3nn4c(C)c(CCC(=O)O)c(C)nc4c23)cc1
 : >57	i
O=C(CCC1COc2ccccc2O1)Nc1ncccc1O (configuration not stated)
 : >57	i
CN(C)CCCNc1oc(-c2cccc(Cl)c2)nc1C#N
 : >57	i
CCCN(CCC)CCCNC(=O)c1cc2cc3ccc(OC)cc3nc2o1
 : i	i
CCCS(=O)(=O)N1CCC(C(=O)NCCN(CC)c2ccccc2)CC1
 : >57	i
CC(C)(C)c1ccc(OCCN2CCCC2)cc1
 : ·	i
CC1=C(C(=O)Nc2cccnc2)C(c2cccnc2)n2nc(-c3cccs3)nc2N1 (configuration not stated)
 : >57	i
Cc1ccc(C2CC(c3ccccc3C)n3nc(N)nc3N2)cc1 (configuration not stated)
 : ·	i
Oc1c(C(c2cccs2)N2CCN(c3ccccc3)CC2)sc2ncnn12 (configuration not stated)
 : ·	i
COc1ccc2c(c1)c(=O)c(Br)c(C)n2Cc1ccccc1
 : ·	i
COC(=O)c1[nH]c2c(c1C)C(=O)CCC2
 : >57	i
CC(CCc1ccccc1)NC(=O)C1CCN(S(=O)(=O)c2cnc[nH]2)CC1 (configuration not stated)
 : >57	i
COc1cccc(C(=O)Nc2ccc3nc(N4CCN(c5ncccn5)CC4)cc(C)c3c2)c1OC
 : >57	i
O=C1O[C@@H]([C@H](O)[C@H](O)[C@H](O)CO)[C@@H](O)[C@@H]1O
 : ·	i
COC(=O)Cc1csc(N)n1
 : >57	i
COc1ccccc1N=Cc1nc(-c2ccccc2)oc1OC(C)=O
 : >26	·

Carrying on:
Second line of a record – PK Bst	TsaE inh
CCCCCCCCCCCCCCCCCCc1ccc(C(=O)/C=C\C(=O)O)cc1
 : ·	i
Cc1noc(NS(=O)(=O)c2ccc(N3Cc4ccccc4C3=O)cc2)c1C
 : >11	i
O=C1c2oc3ccc(F)cc3c(=O)c2C(c2cccc(O)c2)N1CCCN1CCOCC1 (configuration not stated)
 : ·	i
COc1ccc(C(=O)Nc2cccnc2)cc1S(=O)(=O)N1CCOCC1
 : ·	i
COC(=O)C1=C(C)NC(=O)CC1c1cc2c(cc1Br)OCO2 (configuration not stated)
 : ·	i
COC(=O)N1CC=CC1(C)C(=O)O (configuration not stated)
 : ·	i
CS(=O)(=O)N(CC(=O)O)c1ccc2c(c1)OCO2
 : >57	i
c1ccc2[nH]c(NCCN3CCOCC3)nc2c1
 : >57	i
Cn1c(=O)c(-c2ccc(Cl)cc2)nc2cnc(Nc3ccccc3)nc21
 : ·	i
Cc1ccccc1Oc1ccc(Oc2ccccc2C)nn1
 : >57	i
c1cncc(-c2nc(-c3ccc4c(c3)OCO4)cs2)c1
 : ?	i
O=C(c1cc(-c2ccccc2)on1)N1CCN(Cc2ccc3c(c2)OCO3)CC1
 : >57	i
Nc1nc(CN2CCN(c3cccc(Cl)c3)CC2)nc(N2CCCc3ccccc32)n1
 : >57	i
Cc1ccc(C)c(-n2c(CNC(=O)c3ccco3)nnc2SCC(=O)Nc2nccs2)c1
 : >57	i
COc1cccc(OCCOc2c(OC)cccc2OC)c1
 : >57	i
CCOc1ccc(/C(O)=C2/C(=O)C(=O)N(c3nc(C)c(C)s3)C2c2ccco2)cc1 (configuration not stated)
 : >26	·
O=C(NCC1(N2CCOCC2)CCCCC1)c1ccc(Cl)c(S(=O)(=O)NCc2ccco2)c1
 : >57	i
CC(=O)c1cccc(S(=O)(=O)N2CCN(c3nc4cc(C)cc(C)c4cc3C#N)CC2)c1
 : >57	i
CCCc1noc2c1C(c1ccoc1)C(C#N)=C(N)N2 (configuration not stated)
 : >57	i
O=C(NC(O)C(=O)c1cccs1)c1cccnc1 (configuration not stated)
 : >57	i
COc1ccccc1-c1cc(NCc2cnc(C)cn2)ncn1
 : ·	i
COc1ccc(C(CC(=O)Nc2nccs2)n2cccc2)cc1 (configuration not stated)
 : ·	i
Cc1ccc2c(CSc3nncs3)cc(=O)oc2c1
 : >57	i
COC(=O)C1C(=O)C=C(N2CCOCC2)CC1(C)C (configuration not stated)
 : ·	i
CCOc1ccc(CCNC(=O)Cn2c(-c3nonc3N)nc3ccccc32)cc1OCC
 : >57	i
O=C(c1ccc(C(=O)N2CCCc3ccccc32)nc1)N1CCCc2ccccc21
 : ·	i
O=C(Cn1cnc2c(cnn2-c2ccccc2)c1=O)c1ccc(Cl)cc1
 : ·	i
COc1ccc(OC)c(-n2cnnn2)c1
 : >57	i
COc1cccc(-c2nnc(SCC(=O)Nc3ccc4c(c3)OCCO4)n2Cc2ccco2)c1
 : >57	i
Cn1c(=O)c2c(nc(Br)n2CC(=O)C23CC4CC(CC(C4)C2)C3)n(C)c1=O
 : >57	i

Carrying on:
Second line of a record – PK Bst	TsaE inh
Cc1ccc(S(=O)(=O)C2(C(=O)Nc3cccnc3)CC2)cc1
 : ·	i
CCCOc1ccc(N2C(=O)CC(N3CCN(c4ccccc4F)CC3)C2=O)cc1 (configuration not stated)
 : ·	i
Cc1cc(NC(=O)CSc2nc(C(C)C)nc3sc(C)c(C)c23)no1
 : >57	i
Cc1nc(NCC2CCCO2)c2nnn(Cc3ccccc3Cl)c2n1 (configuration not stated)
 : >57	i
COc1ccc2c(c1)CCc1c(C(=O)N3CCCc4ccccc43)noc1-2
 : ·	i
CC(NS(C)(=O)=O)C(c1cccs1)N1CCN(c2ccc(F)cc2)CC1 (configuration not stated)
 : >57	i
Cc1occc1-c1nnc(SCC(=O)N2c3ccccc3CCc3ccccc32)n1C
 : >57	i
C=C/C(C)=C/[C@]1(C)SC(=O)C(C)=C1O
 : ·	i
COCC(=O)Nc1ccc(N(C)C)cc1
 : >57	i
CC1CN(S(=O)(=O)c2ccc(NC(=O)CCCN3C(=O)c4ccccc4C3=O)cc2)CC(C)O1 (configuration not stated)
 : >57	i
COc1ccccc1C(=O)N1CCc2ccccc21
 : >57	i
CN1CCN(CC(=O)Nc2ccc(Cl)cc2Cl)CC1
 : >57	i
CCOc1ccc2c(C)nc(NC3=NC(C)(C)C=C(C)N3)nc2c1
 : >26	·
COC(=O)c1sc(N)c(C(=O)OC)c1CSc1nnc(-c2ccccc2Cl)n1C
 : >57	i
CCNc1ncc2nc(-c3ccccc3)c(=O)n(-c3ccc(OC)cc3)c2n1
 : ·	i
O=C(CN(Cc1ccccc1)C(=O)c1ccco1)NCc1ccc(F)cc1
 : >57	i
Nc1ccnc(C(F)(F)F)c1C(=O)c1ccccc1
 : >57	i
Cc1cc(NC2C3CC4CC(C3)CC2C4)n2nnnc2n1 (configuration not stated)
 : >57	i
COc1ccccc1C(=O)n1nc(-c2ccccc2)nc1N
 : >57	i
COc1ccc(NC(=O)c2ccc(-n3nc(C)c[n+]3[O-])cc2)cc1
 : >57	i
O=C(C1CN(S(=O)(=O)c2ccccc2)CCN1S(=O)(=O)c1ccccc1)N1CCCCCC1 (configuration not stated)
 : ·	i
COc1ccccc1CC(NC(C)=O)C(=O)N1CCN(C(=O)Nc2ccccc2Cl)CC1 (configuration not stated)
 : >57	i
O=C(c1ccco1)N1CCN(C(=O)C2CCCc3c2[nH]c2ccc(Cl)cc32)CC1 (configuration not stated)
 : >57	i
CCn1c(=O)cc(OCC(=O)Nc2ccc(Cl)cn2)c2ccccc21
 : >57	i
CCC1Oc2nc(SC)nnc2-c2ccccc2N1C(=O)c1ccccc1 (configuration not stated)
 : ·	i
CCOC(=O)c1ccc(NC(=O)c2nn(C)cc2Br)cc1
 : ·	i
CCOC(=O)c1cc(CC)sc1NC(=O)CCC(=O)O
 : >57	i
CSc1cccc(NC(=O)C2CCCN2S(=O)(=O)c2ccc3c(c2)CCC(=O)N3)c1 (configuration not stated)
 : >57	i

7 entries from above, with values ahead of the structure:
| PK Bst | TsaE inh | structure |
| --- | --- | --- |
| >57 | i | COC(=O)c1[nH]c2c(c1C)C(=O)CCC2 |
| >57 | i | CC(CCc1ccccc1)NC(=O)C1CCN(S(=O)(=O)c2cnc[nH]2)CC1 (configuration not stated) |
| >57 | i | COc1cccc(C(=O)Nc2ccc3nc(N4CCN(c5ncccn5)CC4)cc(C)c3c2)c1OC |
| · | i | O=C1O[C@@H]([C@H](O)[C@H](O)[C@H](O)CO)[C@@H](O)[C@@H]1O |
| >57 | i | COC(=O)Cc1csc(N)n1 |
| >26 | · | COc1ccccc1N=Cc1nc(-c2ccccc2)oc1OC(C)=O |
| · | i | CCCCCCCCCCCCCCCCCCc1ccc(C(=O)/C=C\C(=O)O)cc1 |

Compound profiles (already shown). Values in the order: PK Bst | TsaE inh
Profile of Nc1ccnc(C(F)(F)F)c1C(=O)c1ccccc1 = >57 | i
Profile of CCOC(=O)C1=C(CSc2nc(C)cc(C)c2C#N)OC(N)=C(C#N)C1c1cccs1 (configuration not stated) = >26 | ·
Profile of COC(=O)Cc1csc(N)n1 = >57 | i
